Screening results from PubChem BioAssay.
HSD17B inh: inhibitors of human HSD17B10 dehydrogenase; Q99714; recombinant HSD17B10, NADH fluorescence kinetic; many of its hits are not listed in these tables; Potency, µM (top dose mostly 57.1 µM), for the others: top-dose activity change, negative = inhibition, hits mostly inhibitors; 75,000 compounds, 7.6% hits; AID 893; active means well fitted inhibition curve with a large enough effect; inconclusive means small, poorly fitted or top-dose-only effect; inactive means no such curve, though single readings can be large or run the other way;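 further: the protocol describes HADH2 (HSD17B10) and not the HSD17B4 of the title; nearly all actives have a fitted effect of over 70% in size; most hits overshoot -100% by far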
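20 nM HADH2, pH 9.0 Tris/Tween; cpd preinc 15 min RT; start w/ 1 mM NAD+ + 90 uM b-hydroxybutyryl-CoA; kinetic fluor ex360/em450 q30s x 4 min; delta last-first.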
Starred values were filed as active, the others as inactive; ? = inconclusive; [ ] = dose if it differs, or a comment. On the % scale 0 is the no-effect control and ±100 the full control effect; potency means the concentration at half of the fitted maximal effect.

SMILES	HSD17B inh
O=C1CC(N2CCN(c3ccc(F)cc3)CC2)C(=O)N1Cc1cccs1 (stereo unspecified)	-13%
CCc1ccccc1N1CC23C=CC(O2)C(C(=O)OCC(C)C)C3C1=O (stereo unspecified)	7%
COc1ccc(OC)c(/C=c2\sc3nc(-c4cccs4)nn3c2=O)c1	-2%
CCC(=O)N1c2ccc(S(=O)(=O)CCC(=O)NC3CCCC3)cc2CC1C (stereo unspecified)	-7%
O=C(NCc1ccco1)c1cccn2c(=O)c3cc(Br)ccc3nc12	25µM*
O=C(NC1CCCCC1)N1CCC(n2c(=O)[nH]c3ccccc32)CC1	9%
CCOc1ccc(-c2nnc3ccc(SCc4ccc(C(=O)OC)o4)nn23)cc1	-17%
CCOC(=O)CCCCC(=O)c1[nH]c(=O)[nH]c1CN1CCOCC1	11%
Cc1cc(NC(=O)CSc2nnc(Cn3c(=O)sc4ccccc43)n2-c2ccccc2C)no1	-2%
COCC(C)NS(=O)(=O)c1ccc(NC(=O)C(Cc2ccccc2)NC(N)=O)cc1 (stereo unspecified)	10%
CCN(CC)CP(=O)(c1ccccc1)c1ccccc1	-25%
CCCOc1ccc(-c2nnc(-c3ccncc3)o2)cc1	10µM*
Cn1c(SC/C=C/c2ccccc2)nnc1-c1ccco1	-2%
O=S(=O)(Nc1cccnc1)c1cccc(C(F)(F)F)c1	2%
CCC1OCCC=CC1C (stereo unspecified)	3%[11.4 µM]
O=C(NCCCN1CCOCC1)c1cc(-c2ccc(F)cc2)on1	0%
Cc1cc(C)cc(-n2ccnc2SCC(=O)Nc2ccc3c(c2)OCCO3)c1	-3%
O=c1c(N2CCOCC2)nsn1Cc1ccccc1	7%
CC(C)c1ccc(C(O)c2cnc(C(C)C)n2C)cc1 (stereo unspecified)	0%
Cc1cc2cc(CCNC(=O)c3c(-c4ccccc4Cl)noc3C)c(=O)[nH]c2cc1C	?
CC(C)Sc1nnc(Nc2ccccc2)s1	-10%
CCOC(=O)C1(C)NC(c2ccccc2F)C2C(=O)N(c3cccc(C(C)=O)c3)C(=O)C21 (stereo unspecified)	1%
CCN(CCNC(=O)C1CCN(c2nnc(-n3cccc3)s2)CC1)c1ccccc1	-2%
COc1cccc(-n2c(Cc3cc(=O)[nH]c(=O)[nH]3)nnc2SCC(=O)N2CCCCCC2)c1	7%
c1ccc(Cc2ccc(OCCn3cncn3)cc2)cc1	8%
CCOc1ccccc1C(=O)N1CCN(c2cccc(Cl)c2)CC1	-6%
CC(=O)c1cn(CC(=O)NCc2ccc3c(c2)OCO3)c2ccccc12	4%
CCOc1ccc(C(C)=O)cc1CN1C(=O)NC2(CCCCC2C)C1=O (stereo unspecified)	4%
CC1CCCC(NC(=O)COC(=O)c2ccc(S(=O)(=O)N3CCOCC3)cc2)C1C (stereo unspecified)	0%
CCC(C(=O)N1CCOCC1)n1c(C(=O)OC)cc2occc21 (stereo unspecified)	3%
COC(=O)Nc1ccc(S(=O)(=O)N(C)CC(F)(F)C(F)F)cc1	2%
CCC(C)(c1ccc(C(=O)OC)s1)c1ccc(C(=O)OC)s1	5%
Cc1ccn2cc(CNS(=O)(=O)c3ccc(Cl)s3)nc2c1	8%
CCCn1c(SCc2ccccn2)nc2c1c(=O)n(C)c(=O)n2C	6%
Brc1ccc2ncnc(Nc3ccc(N4CCOCC4)cc3)c2c1	-9%
N#Cc1ccc(OCCN2C(=O)NC3(CCSC3)C2=O)cc1 (stereo unspecified)	-2%
CC1CCN(C(=O)CN2C(=O)c3ccccc3S2(=O)=O)CC1	-3%
COc1ccc(C(=O)N2CCN(C(=O)c3ccco3)CC2)cc1	8%
COc1cc(-c2noc(-c3ccco3)n2)cc(OC)c1OC	0%
O=C(NCCCn1ccnc1)Nc1ccc(Cl)c(Cl)c1	2%
COC(=O)c1ccc(CSc2nc3ccccc3c(=O)n2-c2ccc(OC)c(OC)c2)o1	-7%
CCOCCCNC(=O)c1c(C)[nH]c(C(=O)OCC)c1C	-2%
COc1ccc(NC(=O)C2CCC(=O)N2)cc1 (stereo unspecified)	6%
Cc1ccccc1-c1nccc(NCc2cccnc2)n1	?
COc1ccc(N(CC(=O)NC2CCCCCC2)S(=O)(=O)c2c(C)nn(C)c2C)cc1	1%
c1cc2c(cc1C1CCCN1)OCCCO2 (stereo unspecified)	7%
Cc1c(C)[n+](=O)c(-c2cccs2)c(C)n1[O-]	5%
O=S(=O)(Nc1ccc2c(c1)OCCO2)c1cnc[nH]1	12%
Cc1ccc(CNC(=O)C2CNc3cc(C)ccc3O2)cc1 (stereo unspecified)	2%
NS(=O)(=O)c1ccc(NC(=O)CSc2nnc(Cc3cccs3)n2-c2ccccc2)cc1	6%
C=CCOC(=O)C(C(C)=O)C(NC(=O)OC)c1ccco1 (stereo unspecified)	7%[11.4 µM]
CN1CCN(CCCNC(=O)c2cn(C3CCCCC3)c(=O)c3c2c2ccccc2n3C)CC1	25µM*
CN(C(=O)COC(=O)c1ccccc1Nc1ccccc1)C1CCS(=O)(=O)C1 (stereo unspecified)	-5%
CC(=O)Nc1c(O)[nH]c2ccccc12	1%
OCCN(Cc1ccccc1)CC1CC=CCC1 (stereo unspecified)	1%
CCOC(=O)CSc1nnc(-c2ccccc2NC(=O)c2ccccc2)o1	1%
CCCC(=O)CN1C(=O)C2(OCCO2)c2ccccc21	1%
CC(C)(C)c1ccc(S(=O)(=O)N2CCCC2C(=O)NC2=NCCS2)cc1 (stereo unspecified)	-5%
COc1ccccc1C(=O)NCCC(=O)N1CC(=O)Nc2ccccc21	4%
O=C(COc1c(F)c(F)c(C(F)(F)F)c(F)c1F)Nc1ccc(N2CCOCC2)c(Cl)c1	-7%

Next section:
SMILES	HSD17B inh
O=C(CSc1nnc(C2CC2)n1Cc1ccccc1)c1cc2ccccc2o1	-24%
O=C(Nc1ccc(Br)c2cccnc12)c1ccc(Cn2cc(Cl)cn2)o1	-1%
Cc1cccc(CCN(Cc2cc3cccc(C)c3[nH]c2=O)C(=O)N2CCOCC2)c1	-2%
Cn1c(=O)c2c(ncn2CC(N)=O)n(C)c1=O	0%
Cn1nnc(NC(=O)c2ccccc2F)n1	12%
CC1(C)Cc2c(sc3nn[nH]c(=O)c23)CO1	3%
CCS(=O)(=O)n1nc(-c2ccccc2)nc1SCc1ccccc1	-5%
O=C(c1ccco1)N1CCN(c2ncnc3c2[nH]c2ccc(Br)cc23)CC1	?
COc1ccc(C(CNC(=O)Cn2[nH]c(=O)c3ccccc3c2=O)N2CCCC2)cc1 (stereo unspecified)	9%
COc1ccc(-c2nc3cnc(OC)nc3n(CCC#N)c2=O)cc1	?
c1ccc(-c2nc3nc4ccccc4nc3n2Cc2ccco2)cc1	?
CCN(CC)S(=O)(=O)c1ccc(NC(=O)COC(=O)c2ccc(Br)o2)cc1	1%

Part of the list above, with bars between the fields:
structure | HSD17B inh
COc1ccc(N(CC(=O)NC2CCCCCC2)S(=O)(=O)c2c(C)nn(C)c2C)cc1 | 1%
c1cc2c(cc1C1CCCN1)OCCCO2 (stereo unspecified) | 7%
Cc1c(C)[n+](=O)c(-c2cccs2)c(C)n1[O-] | 5%
O=S(=O)(Nc1ccc2c(c1)OCCO2)c1cnc[nH]1 | 12%
Cc1ccc(CNC(=O)C2CNc3cc(C)ccc3O2)cc1 (stereo unspecified) | 2%
NS(=O)(=O)c1ccc(NC(=O)CSc2nnc(Cc3cccs3)n2-c2ccccc2)cc1 | 6%
C=CCOC(=O)C(C(C)=O)C(NC(=O)OC)c1ccco1 (stereo unspecified) | 7%[11.4 µM]
CN1CCN(CCCNC(=O)c2cn(C3CCCCC3)c(=O)c3c2c2ccccc2n3C)CC1 | 25µM*
CN(C(=O)COC(=O)c1ccccc1Nc1ccccc1)C1CCS(=O)(=O)C1 (stereo unspecified) | -5%
CC(=O)Nc1c(O)[nH]c2ccccc12 | 1%
OCCN(Cc1ccccc1)CC1CC=CCC1 (stereo unspecified) | 1%
CCOC(=O)CSc1nnc(-c2ccccc2NC(=O)c2ccccc2)o1 | 1%
CCCC(=O)CN1C(=O)C2(OCCO2)c2ccccc21 | 1%
CC(C)(C)c1ccc(S(=O)(=O)N2CCCC2C(=O)NC2=NCCS2)cc1 (stereo unspecified) | -5%
COc1ccccc1C(=O)NCCC(=O)N1CC(=O)Nc2ccccc21 | 4%
O=C(COc1c(F)c(F)c(C(F)(F)F)c(F)c1F)Nc1ccc(N2CCOCC2)c(Cl)c1 | -7%
O=C(CSc1nnc(C2CC2)n1Cc1ccccc1)c1cc2ccccc2o1 | -24%
O=C(Nc1ccc(Br)c2cccnc12)c1ccc(Cn2cc(Cl)cn2)o1 | -1%
Cc1cccc(CCN(Cc2cc3cccc(C)c3[nH]c2=O)C(=O)N2CCOCC2)c1 | -2%
Cn1c(=O)c2c(ncn2CC(N)=O)n(C)c1=O | 0%
Cn1nnc(NC(=O)c2ccccc2F)n1 | 12%
CC1(C)Cc2c(sc3nn[nH]c(=O)c23)CO1 | 3%
CCS(=O)(=O)n1nc(-c2ccccc2)nc1SCc1ccccc1 | -5%
O=C(c1ccco1)N1CCN(c2ncnc3c2[nH]c2ccc(Br)cc23)CC1 | ?
COc1ccc(C(CNC(=O)Cn2[nH]c(=O)c3ccccc3c2=O)N2CCCC2)cc1 (stereo unspecified) | 9%

The list goes on.
SMILES	HSD17B inh
CCOC(=O)c1c(N)sc(C(O)(C(F)(F)F)C(F)(F)F)c1-c1ccc(OC)cc1OC	-5%
CCN(CC)S(=O)(=O)c1ccc(C(=O)NCc2n[nH]c(=S)n2Cc2ccccc2)cc1	3%
CCOc1ccccc1-c1nnc(SCC(=O)NC2CC3CCC2C3)n1CC (stereo unspecified)	-4%
Cc1cc2oc(=O)cc(C)c2c(=O)o1	-29%
CN(C)CCOc1nc(-c2ccccc2)nc2c1oc1ccccc12	-12%
CN(C)CCCNC(=O)c1ccc(CN(c2ccccc2)S(C)(=O)=O)cc1	-1%
O=C1CCC(=O)N1c1ccc(CSc2nc3ccccc3[nH]2)cc1	-8%
CC(=O)N1CCc2cc(S(=O)(=O)NC(C(=O)NC3CCCc4ccccc43)C(C)C)ccc21 (stereo unspecified)	1%
FC(F)C(F)(F)C1=CC(c2cccs2)=NCCN1	-9%
O=C(CC1CCCCC1)N1CCN(c2ccccn2)CC1	?
O=C(Cn1cnc2ccccc21)OCC(=O)N1CCc2ccccc2C1	13%
CN(Cc1ccco1)c1ncncc1-c1cccnc1	-8%
C=CCN1C(=O)C2C(C(=O)NC3CCCCC3)C3C=CC2(O3)C1C(=O)NC1CCCC1 (stereo unspecified)	-3%
CC(C)OCCCNC(=O)CCc1nc(-c2ccccc2)no1	13%
Cc1cc(C)n(-c2cccc(Cl)c2)c(=O)c1C#N	-16%
CC(=O)Nc1nc(-c2ccccc2)nc(-c2ccccc2OC(C)=O)n1	-13%
CN(C)c1ccc(C2N(c3ccc(F)cc3)C(=O)C3CCCN32)cc1 (stereo unspecified)	0%
COC(=O)c1[nH]c2ccccc2c1NC(=O)CNC1CCCCC1	?
COc1ccc(-n2nc(C(=O)Nc3ccc4c(c3)OCO4)c3ccccc3c2=O)c(OC)c1	3%
C/C(=N\O)C(=O)C(CN1CCCCC1)CN1CCCCC1	5%
Cc1ccc(-c2nnn(CC(=O)N3CCCCC3)n2)c(-n2cnnn2)c1	2%
O=C(c1cnn2cccnc12)N1CCN(Cc2ccc3c(c2)OCO3)CC1	-1%
Cc1noc(C)c1COC(=O)c1cc(F)c(F)cc1Cl	2%
CC(=O)c1c(N=CN(C)C)nc(C)nc1-c1ccccc1	-9%
Cc1ccc2cc3cc(C(=O)N4CCCCCC4)oc3nc2c1	25µM*
Cc1ccc(C)c(N2CCN(C(=O)c3cc(S(=O)(=O)N4CCOCC4)ccc3F)CC2)c1	-10%
O=C(O)CCCNc1cc(N2CCC3(CC2)OCCO3)c2noc3c2c1C(=O)c1ccccc1-3	2.5µM*
Cc1sc2nc3n(c(=O)c2c1C)NC(=O)CC3	-14%
N#C[C@@H](Cc1ccc(O)c(O)c1)C(=O)N1CCc2ccccc21	20µM*
CCOc1ccc2[nH]c(=O)c(CN(CCO)C(=O)c3ccccc3F)cc2c1	32µM*
CNC(=O)NC(=O)CSc1nc2cc(C(=O)OC)ccc2c(=O)n1-c1ccccc1	5%
NCCCCCCCCCCN	8%
COC(=O)c1ccc(C(NC(=O)OCc2ccccc2)/C(C)=C/[C@@H](C)C(=O)NCc2nc3ccccc3s2)cc1 (stereo partly specified)	-7%

Some of these compounds in order of molar mass, falling.
SMILES	HSD17B inh
COC(=O)c1ccc(C(NC(=O)OCc2ccccc2)/C(C)=C/[C@@H](C)C(=O)NCc2nc3ccccc3s2)cc1 (stereo partly specified)	-7%
N#C[C@@H](Cc1ccc(O)c(O)c1)C(=O)N1CCc2ccccc21	20µM*
NCCCCCCCCCCN	8%

Only part of the results is shown (hit frequency here may not be typical).
